Choline anaer gr – blocks anaerobic gram-negative growth on choline. Gram-negative bacterium anaerobic choline minimal medium, absorbance growth; hits give low values; many inactives read as strong as hits in the columns shown. calls only. 0.2% of 55,000 active;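 active = growth z-score on choline under -2 at 7 or 20 h with little or no fall on glycerol, limits in tiers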;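 note: stock transfer was 300 nL into about 50 µL; the organism is E. coli; final concentration not given here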
Choline anaer gr early – recorded beside Choline anaer gr, whose call it bears; z-score; measured here: choline growth z-score, timepoint 1;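 score of optical density at 7 h as mean of two plates; lower means less growth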
* hit, by the source's call; i = inactive; & = joins results of further samples. Only part of the results is shown; count on the stated rates, not on these rows.

SMILES | Choline anaer gr | Choline anaer gr early
COc1ccc(NC(=O)CN2N=NC3C(=O)N(c4ccc(F)c(Cl)c4)C(=O)C32)c(OC)c1 (configuration not stated) | i | -0.64
COc1ccc(S(=O)(=O)N2CCCC2c2cc(C(C)C)no2)cc1Cl (configuration not stated) | i | 0.6
Cc1ccc2[nH]cc(CCN3CC(C(=O)Nc4nnc(CC(C)C)s4)CC3=O)c2c1 (configuration not stated) | i | 0.63
O=C(NC1CCCC1)c1cnn(-c2ccccc2)c1 | i | 0.4
Cc1ccc(-c2nc(CSc3nc4ccccc4n4c(C)nnc34)c(C)o2)cc1 | i | 1
CCC(=O)C1=C(c2ccc(Br)cc2)N(C(=O)CC)n2cnnc2S1 | i | -0.39
COc1ccccc1N1CCN(C(=O)c2cn(C3CCCC3)c(=O)c3c2c2ccccc2n3C)CC1 | i | 1.9
COC(=O)c1ccc2c(=O)n(CC(=O)N3CCN(c4ccccn4)CC3)c(=S)[nH]c2c1 | i | 0.32
CC(C)CCNC(=O)c1ccc2c(=O)n(-c3ccc(F)cc3)c(SCC(=O)c3c[nH]c4ccccc34)nc2c1 | i | -0.1
Cn1cnc2ccc(-c3noc(-c4ccc(F)c(F)c4)n3)cc21 | i | 1.4
CCOC(=O)c1ccc(OC(=O)c2cc3c(-c4ccccc4F)nn(C)c3s2)cc1 | i | 0.71
COc1ccc(C2c3c(n(C)c4ccccc34)C(=O)N2CC(=O)Nc2cccc(C)c2C)cc1 (configuration not stated) | i | -0.04
COc1ccc(NC(=O)CN2C(=O)C(C)(C)c3ccccc32)cc1OC | i | -0.47
COC(=O)C1=C(OC(=O)CN2C(=O)c3ccccc3C2=O)c2ccccc2S(=O)(=O)N1C | i | -0.42
CC1CCCCN1S(=O)(=O)c1ccc2c(c1)CCC(=O)N2CC(=O)N1CCCC1 (configuration not stated) | i | -0.18
CN(Cc1ccccc1)C(=O)CCc1nc(CN2CCN(S(=O)(=O)Cc3ccccc3)CC2)no1 | i | 0.48
O=C(CC1CCCCC1)N1CCC(N2CCN(Cc3cccc(F)c3)C(=O)C2=O)CC1 | i | -0.45
COc1ccc(NC(=O)c2cccc(COc3ccc(Cl)cc3)c2)cn1 | i | -0.15
CCn1ccc2cc(S(=O)(=O)N3CCCC(C(=O)N4CCN(c5ncccn5)CC4)C3)ccc21 (configuration not stated) | i | -0.68
Cc1nc2ccccc2n(CC(=O)NC2CCCC2)c1=O | i | -0.96

Record cards (already shown). Screens in order: Choline anaer gr | Choline anaer gr early
Shown for COc1ccc(S(=O)(=O)N2CCCC2c2cc(C(C)C)no2)cc1Cl (configuration not stated) = i | 0.6
Shown for COc1ccc(C2c3c(n(C)c4ccccc34)C(=O)N2CC(=O)Nc2cccc(C)c2C)cc1 (configuration not stated) = i | -0.04

Next section.
SMILES | Choline anaer gr | Choline anaer gr early
O=S(=O)(NCC(c1ccccc1)N1CCOCC1)c1ccc(Cl)cc1 (configuration not stated) | i | -1.2
Cc1ccc(NC(=O)Nc2ccc(OCc3cc(=O)n4ccccc4n3)cc2)cc1C | i | 0.28
O=C1CSc2ccc(S(=O)(=O)CCC(=O)NC3CCCC3)cc2N1 | i | 0.25
Cc1nn(CC(=O)NC(C)(C)C)c(C)c1S(=O)(=O)N1CCC(C(=O)N2CCc3ccccc3C2)CC1 | i | -0.58
CCN1CCc2c(sc(-n3cccc3)c2CNC(=O)Nc2ccsc2C(=O)OC)C1 | i | 0.32
COc1ccc(C(=O)NCC(c2ccc(Br)cc2)c2c[nH]c3ccccc23)cc1 (configuration not stated) | i | 0.71
COc1ccc(C2C3=C(CC(C)(C)CC3=O)Nc3ccccc3N2C(=O)Nc2ccc(F)cc2)cc1 (configuration not stated) | i | 0.68
Cc1ccc(NC(=O)CN2C(=O)COc3ccc(S(=O)(=O)N4CCC(C)CC4)cc32)c(Cl)c1 | i | 1.6
Cc1c(C)n(-c2ccccc2)c2ncn(CCC(=O)N3CCc4ccccc43)c(=O)c12 | i | 0.09
Cc1c(C(=O)NCC(C)C)c(C)n2cnn(CC(=O)NC3CCCCC3)c(=O)c12 | i | 0.31
CCc1nc2nc3c(c(N4CCN(c5cccc(Cl)c5)CC4)n2n1)CCC3 | i | 0.55
Cc1cc(C)n2ncc(C(=O)N3CCCCC3)c2n1 | i | -0.18
c1ccc(SCc2nnc3sc(-c4cnccn4)nn23)cc1 | i | 0.85
Cc1ccc(CS(=O)(=O)c2nnc(N)s2)cc1 | i | 0.35
COC(=O)c1cc(C(=O)Nc2cccc(C)c2)c(=O)[nH]c1C | i | -0.42
Cc1ccccc1-c1nn2c(=O)cc(CN3CCN(C(=O)c4cccc(Br)c4)CC3)nc2s1 | i | 0.01
CCCc1nc2nc(C)cc(N3CCN(c4cc(Cl)ccc4C)CC3)n2n1 | i | 0.02
Brc1cccc(-c2noc(CSc3ccc(-c4ccc5c(c4)OCO5)nn3)n2)c1 | i | 0.72
CC1CCN(C(=O)CCSc2nc(-c3ccc4c(c3)OCO4)cc(C(F)(F)F)n2)C(C)C1 (configuration not stated) | i | 1
O=c1[nH]c(SCc2cc(F)cc(F)c2)nc2c1CN(Cc1ccccc1)CC2 | i | 1.6
Cc1cc(NS(=O)(=O)c2cc3c(cc2C)NC(=O)CO3)ccc1Br | i | -0.16
Cc1cccc(-c2cc(N3CCC(C(N)=O)CC3)nc(SCc3ccc(Cl)cc3)n2)c1 | i | -0.64
O=S(=O)(c1ccc(Cl)cc1)N1CCN=C1N1CCN(c2ccc(F)cc2)CC1 | i | 0.1
CN1c2cc(Cl)ccc2C(=O)NC12CCN(C(=O)Nc1ccc3c(c1)OCCO3)CC2 | i | 0.47
O=C(CN1C(=O)COc2ccccc21)Nc1ccc2c(c1)Sc1ccccc1C(=O)N2C1CCCC1 | i | -0.49
O=C(c1cncc(NS(=O)(=O)c2ccc(F)cc2)c1)N1CCN(Cc2ccccc2)CC1 | i | 0.14
Cc1ccccc1CNS(=O)(=O)c1cc(-c2nc(C)c(C)s2)sc1C | i | -0.04
CCc1nn(-c2ccccc2)c2c1CN(C(=O)NC)C(c1ccccc1)c1cccn1-2 (configuration not stated) | i | -0.18
CCOC(=O)c1[nH]c(C)c(CN(Cc2ccc(OC)cc2)C(=O)Nc2ccc(OC)c(OC)c2)c1C | i | 0.29
O=C(NCc1cccc(Cl)c1)C1CCN(c2nn3c(=O)c4c(nc3s2)CCCC4)CC1 | i | 0.02
CC1CCCN(c2ccc(NC(=O)C3CCC3)c(C(=O)O)c2)C1 (configuration not stated) | i | 0.76
O=C1COc2ccc(S(=O)(=O)N3CCCC(C(=O)NC4CCCC4)C3)cc2N1 (configuration not stated) | i | -0.53
Cc1ccc(CNC(=O)CSc2nc3[nH]ncc3c(=O)n2-c2ccccc2Cl)cc1 | i | -0.71
CC(C)c1ccc(-c2ccnc3c(C(=O)O)cnn23)cc1 | i | -0.22
CN(C1CCS(=O)(=O)C1)S(=O)(=O)c1ccc(N2C(=O)CCS2(=O)=O)cc1 (configuration not stated) | i | -0.3
COc1cc2nc(N3CCN(C(=O)c4ccco4)CC3)nc(N)c2cc1OC | i | 0.88&-0.02&0.47&0.1&0.51&0.17
COCCN1CCc2nc(SCc3c(F)cccc3Cl)[nH]c(=O)c2C1 | i | -0.38
O=C1CC(c2noc(C3CCC3)n2)CN1c1ccc(F)cc1 (configuration not stated) | i | 0.74
Cc1ccc(Sc2ccc(N3CCCC(C(=O)N4CCN(c5ccccn5)CC4)C3)nn2)cc1 (configuration not stated) | i | 0.56
Cc1csc(-c2cc(S(=O)(=O)N3CCCCC3)cn2CC(=O)N2CCCC2)n1 | i | -0.1

Grouped by structure: the entries above containing an aryl methoxy group.
SMILES | Choline anaer gr | Choline anaer gr early
COc1ccc(NC(=O)CN2N=NC3C(=O)N(c4ccc(F)c(Cl)c4)C(=O)C32)c(OC)c1 (configuration not stated) | i | -0.64
COc1ccc(S(=O)(=O)N2CCCC2c2cc(C(C)C)no2)cc1Cl (configuration not stated) | i | 0.6
COc1ccccc1N1CCN(C(=O)c2cn(C3CCCC3)c(=O)c3c2c2ccccc2n3C)CC1 | i | 1.9
COc1ccc(C2c3c(n(C)c4ccccc34)C(=O)N2CC(=O)Nc2cccc(C)c2C)cc1 (configuration not stated) | i | -0.04
COc1ccc(NC(=O)CN2C(=O)C(C)(C)c3ccccc32)cc1OC | i | -0.47
COc1ccc(NC(=O)c2cccc(COc3ccc(Cl)cc3)c2)cn1 | i | -0.15
COc1ccc(C(=O)NCC(c2ccc(Br)cc2)c2c[nH]c3ccccc23)cc1 (configuration not stated) | i | 0.71
COc1ccc(C2C3=C(CC(C)(C)CC3=O)Nc3ccccc3N2C(=O)Nc2ccc(F)cc2)cc1 (configuration not stated) | i | 0.68
CCOC(=O)c1[nH]c(C)c(CN(Cc2ccc(OC)cc2)C(=O)Nc2ccc(OC)c(OC)c2)c1C | i | 0.29
COc1cc2nc(N3CCN(C(=O)c4ccco4)CC3)nc(N)c2cc1OC | i | 0.88&-0.02&0.47&0.1&0.51&0.17

(more compounds)
SMILES | Choline anaer gr | Choline anaer gr early
CCS(=O)(=O)c1ncc(Cl)c(C(=O)Nc2ccc(S(N)(=O)=O)cc2)n1 | i | -0.66
COc1cc(CNC2CC2)ccc1OCc1ccc2c(c1)n(C)c(=O)n2C | i | -0.23
O=C(CSc1ccccc1)NCc1nc2cccnc2n1Cc1ccc(F)cc1 | i | -0.79
O=c1n(Cc2cccc(C(F)(F)F)c2)nc2c(S(=O)(=O)N3CCCCCC3)cccn12 | i | 0.09
CCOC(=O)c1c(-c2ccc(C)c(C)c2)csc1NC(=O)c1sc(C)nc1C | i | 0.07
CC1CCN(c2ccc(NS(=O)(=O)c3ccc(F)cc3)c(C(=O)O)c2)CC1 | i | -0.7
CN(C)S(=O)(=O)c1cc2c(cc1N1CCCC1)Oc1ccccc1NC2=O | i | 0.06
COCCCNC(=O)c1cccc(Nc2ccnc(-c3cccc(C)c3)n2)c1 | i | 0.1
O=C(c1ccc(N2CCCC2=O)cc1)N1CCN(c2ccccn2)CC1 | i | -0.57
Cc1cc(C)cc(NC(=O)C2CCN(S(=O)(=O)c3cccc4nsnc34)CC2)c1 | i | 0.2
Cc1nn(-c2ccc3nnc(C)n3n2)c(C)c1CCC(=O)Nc1ccc(F)cc1 | i | 1.5
Cc1noc(C)c1CCNC(=O)CCSCc1cnn(-c2ccccc2)c1-n1cccc1 | i | -0.33
Cc1ccc2c(=O)c(-c3nc(-c4cccc(F)c4)no3)cn(CC(=O)Nc3ccc(C)c(C)c3)c2n1 | i | -0.8
Cc1noc(C2CN(C(=O)NC3CCCC3)CC23CCOCC3)n1 (configuration not stated) | i | -0.4
O=C(O)CC1NCCc2ccccc21 (configuration not stated) | i | -1.8
O=C(O)C1CCCN(c2nc3c(-c4ccccc4)csc3c(=O)[nH]2)C1 (configuration not stated) | i | 0.38
C#CCSc1nc2c(c(=O)[nH]1)C(c1cc(F)ccc1F)CC(=O)N2 (configuration not stated) | i | 0.29
Cc1ccc(-c2ccc(=O)n(C(C)C(=O)N3CCc4ccccc43)n2)cc1 (configuration not stated) | i | -0.36
CC(C)S(=O)(=O)c1ccc(N2CCN(c3ccccc3)CC2)nn1 | i | 0.78
CCOc1cccc(C(=O)Nc2ccc3c(c2)NC(=O)CO3)c1 | i | -1.6

Arranged by molar mass (lowest first): three of the compounds above.
SMILES | Choline anaer gr | Choline anaer gr early
Cc1noc(C2CN(C(=O)NC3CCCC3)CC23CCOCC3)n1 (configuration not stated) | i | -0.4
O=C(c1ccc(N2CCCC2=O)cc1)N1CCN(c2ccccn2)CC1 | i | -0.57
Cc1nn(-c2ccc3nnc(C)n3n2)c(C)c1CCC(=O)Nc1ccc(F)cc1 | i | 1.5

Next compounds follow.
SMILES | Choline anaer gr | Choline anaer gr early
COc1ccc(S(=O)(=O)N2CCN=C2N2CCN(c3ccc(F)cc3)CC2)cc1 | i | 0.09
CN1CCN(C(=O)C2CC(=O)N(c3ccc4c(c3)CCN4C(=O)C3CC3)C2)CC1 (configuration not stated) | i | -0.86
COC(=O)c1cc(S(=O)(=O)N(C)CC(=O)Nc2ccc(Cl)cc2C)cn1C | i | -0.17
CCOC(=O)c1[nH]c(C)c(CCC(=O)N2CCCC(C(=O)N3CCN(CC)CC3)C2)c1C (configuration not stated) | i | 0.86
C=CCN(c1ccccc1)S(=O)(=O)c1cc2c(cc1C)NC(=O)CO2 | i | -1.5
Cc1ccccc1CN1CCN(CC(=O)N2CCN(c3ccccn3)CC2)C(=O)C1=O | i | 0.38
Cc1ccc(OC(C)C(=O)Nc2cc(C)ccc2OCc2cc(=O)n3oc(C)cc3n2)cc1 (configuration not stated) | i | 0.5
CCc1ccc(-n2c(=O)c3c4c(sc3n(CC(=O)N3CCC(C)CC3)c2=O)CCC4)cc1 | i | 1
Cc1oc2ncn(Cc3ccccc3Cl)c(=O)c2c1C | i | 0.02
C=CCSc1ncnc2nc[nH]c12 | i | -3.3
COc1ccc(C(C)(C)C)cc1S(=O)(=O)N1CCN(c2cc(N(C)C)nc(C)n2)CC1 | i | 0.21
CN(Cc1ccccc1)C(=O)C1CCN(c2ccc(-c3cccc(F)c3)nn2)CC1 | i | 1.4
Cc1oc2ccc(O)c(CN3CCCC3)c2c1C(=O)NCc1ccccc1 | i | -0.2
O=C(Nc1cc(Cl)ccc1O)c1noc2c1CCc1ccccc1-2 | i | -2.2
CCC(C)NC(=O)CSc1ncnc2nc(N3CCC(C)CC3)sc12 (configuration not stated) | i | 0.25
CCCNC(=O)c1cc2cc(OCC)ccc2n1C | i | -0.37
O=C(Nc1ccccc1F)C1CCCN(c2nc3ccccc3nc2C(F)(F)F)C1 (configuration not stated) | i | 0.53
Cc1nnc(NC(=O)CN2C(=O)c3ccccc3S2(=O)=O)s1 | i | 0.04
CC(C)NC(=O)c1nn(-c2ccccc2Cl)nc1CO | i | -0.19
CCOC(=O)c1ccccc1NC(=O)CSc1ncc(S(=O)(=O)c2ccc(Br)cc2)c(=O)[nH]1 | i | 0.46
CC1C(=O)Nc2ccc(S(=O)(=O)NC3CCCC3)cc2NC1=O (configuration not stated) | i | -1.9
CC1CCc2c(sc3ncn4c(nc(=O)n4CC(=O)N(C)c4ccccc4)c23)C1 (configuration not stated) | i | 1.2
